# Assay outcomes (PubChem)
# UUG fidelity: yeast start codon fidelity modulation; activity score, % at 18.7 µM; 350,000 compounds, 0.13% hits; S. cerevisiae UUG-firefly luciferase reporter, luminescence/redox ratio;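 active = replicate mean at a twofold rise or more, about +100% in these data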;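 also: firefly luciferase made from a UUG start codon reports start codon fidelity; reporter light over untreated wells divided by growth signal over untreated wells; some hits fall short of that in this replicate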
# MT1-MMP act inh: blocks activation of human MT1-MMP. 360,000 compounds, 0.061% hits. HT1080 RFP-PRO-GFP cells, GFP/RFP ratio fluorescence, overnight; percent of plate control window, DMSO zero. GFP/RFP ratio change, % at 20 µM;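 active = GFP/RFP ratio change of at least 30% with cell ATP level not reduced by more than half and red fluorescence within 50% of control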; also: strong numbers were not always called active
#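 Assay system – RFP-PRO-GFP reporter HT1080 cells · Compound dosing – single dose of 20 µM compound, 1% DMSO final · Incubation – overnight compound exposure at 37 °C · Measure – GFP/RFP fluorescence ratio · Benchmarks – DMSO wells and RFP-L50D-GFP cells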
# eIF4H inh: inhibitors of RNA binding by human eIF4H. Q15056. eIF4H fluorescence polarization binding assay. inhibition, % at 35 µM. 290,000 compounds, 0.94% hits. AID 2012;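 active = 50% or more with normal probe brightness, or confirmed in later tests; inconclusive = above 50% with abnormal brightness, or retests that disagree; inactive = below 50% or failed in later tests; about a fifth of its hits are not listed in these tables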;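 also: calls also rest on retests at 20 µM and on dose response follow-up; 0% = protein and probe with vehicle and 100% = probe without protein; strong numbers were not always called active; many hits fall short of the cut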
# Env fusion inh: inhibitors of HIV Env-mediated cell fusion; 360,000 compounds, 1.1% hits; inhibition, % at 12.3 µM; HeLa-JRFL Env/CEM21 cell fusion, luciferase;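 active = mean replicate inhibition score of at least 50 and every replicate individually at or above 50; inconclusive = only one of the two criteria met; inactive = mean below 50 and not all replicates reaching 50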;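 also: 0% = plate neutral controls and 100% = maraviroc near 300 nM; one replicate is shown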
# CSC inhib: blocks cancer stem cells; cancer stem cell-like cells viability, luminescence; inhibition, % at 7.5 µM; 300,000 compounds, 1.1% hits; AID 2717;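 active = mean at 75% or more and at least half the replicates too; inconclusive = mean and replicates disagree; tested in HMLE shEcad cells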;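 also: 0% = median of negative and 100% = median of positive control wells; the first replicate is given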
# PABP FP inh: blocks human PABP binding to poly(A) RNA | inhibition, % at 35 µM | 290,000 compounds, 1% hits | P11940 | AID 2014 | fluorescence polarization;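 active = 50% or more with normal probe brightness, or confirmed in later tests; inconclusive = above 50% with abnormal brightness, or retests that disagree; inactive = below 50% or failed in later tests; about a fifth of its hits are not listed in these tables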;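 also: calls also rest on retests at 20 µM and on dose response follow-up; controls were probe without protein and protein plus probe with vehicle; some compounds called inactive have numbers as strong as hits; many hits fall short of the cut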
# Target sequence (P11940 whole entry, looked up): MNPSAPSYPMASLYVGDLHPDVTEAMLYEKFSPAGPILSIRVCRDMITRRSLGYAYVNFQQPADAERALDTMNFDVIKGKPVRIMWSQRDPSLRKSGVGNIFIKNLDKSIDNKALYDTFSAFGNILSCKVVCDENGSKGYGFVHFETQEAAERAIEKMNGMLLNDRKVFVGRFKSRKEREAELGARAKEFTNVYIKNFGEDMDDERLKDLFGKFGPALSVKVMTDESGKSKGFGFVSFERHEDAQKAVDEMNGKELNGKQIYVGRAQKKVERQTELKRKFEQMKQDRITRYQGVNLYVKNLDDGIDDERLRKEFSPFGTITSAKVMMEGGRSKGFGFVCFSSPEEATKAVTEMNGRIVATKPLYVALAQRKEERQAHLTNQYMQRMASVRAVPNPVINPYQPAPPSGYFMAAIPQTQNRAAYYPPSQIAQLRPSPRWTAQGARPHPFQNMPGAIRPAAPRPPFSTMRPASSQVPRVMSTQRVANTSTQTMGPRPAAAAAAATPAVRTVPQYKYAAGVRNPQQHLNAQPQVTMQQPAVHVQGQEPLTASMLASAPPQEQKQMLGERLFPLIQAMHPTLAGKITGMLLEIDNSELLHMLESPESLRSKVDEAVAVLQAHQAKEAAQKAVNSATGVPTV
# Rce1 inh: inhibitors of yeast Ras-converting enzyme. yeast membranes, quenched prenylated peptide cleavage fluorescence. calls only. 290,000 compounds, 0.27% hits. AID 2563;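 active = fall in fluorescence gain of 50% or more versus controls, with final raw signal at or below 3038400; inconclusive = same 50% fall but final raw signal above 3038400; inactive = fall in fluorescence gain under 50%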;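 also: plate controls were neutral control wells for no effect and wells lacking membranes for full effect; tested at 10 µM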
# Target sequence (Q03530 whole entry, looked up): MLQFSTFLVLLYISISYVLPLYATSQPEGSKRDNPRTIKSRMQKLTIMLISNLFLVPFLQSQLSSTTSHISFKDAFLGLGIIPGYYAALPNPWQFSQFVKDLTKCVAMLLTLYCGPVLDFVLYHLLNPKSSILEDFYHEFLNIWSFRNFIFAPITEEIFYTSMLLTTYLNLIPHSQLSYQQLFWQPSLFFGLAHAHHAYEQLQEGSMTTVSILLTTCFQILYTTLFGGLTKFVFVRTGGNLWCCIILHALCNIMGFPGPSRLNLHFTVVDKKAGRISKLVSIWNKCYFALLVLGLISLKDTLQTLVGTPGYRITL
# eIF4H inh retest: also measured in eIF4H inh; calls as there; inhibition, %; compound at 20 µM; confirmation average;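 mean of two retest wells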
# PABP FP inh retest: also measured in PABP FP inh; calls as there; inhibition, %; compound at 20 µM; confirmation repeats;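 mean of two retest wells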
# MT1-MMP act inh RFP: recorded beside MT1-MMP act inh, whose call it bears; RFP signal change, %; measured here: RFP expression control read;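 0 = vehicle wells; hits needed this value within 50% of zero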
# * marks the source's active call; other numbers are inactive results; i = inactive; ? = inconclusive; · = no result given.
SMILES,UUG fidelity,MT1-MMP act inh,MT1-MMP act inh RFP,eIF4H inh,Env fusion inh,CSC inhib,PABP FP inh,Rce1 inh,others
COc1ccc(C)cc1N1CC(C(=O)Nc2ccccc2C(=O)NC2CC2)CC1=O (stereo not given),3,-2,-3,·,·,-9,·,·,
COc1ccc(C2CC(c3cccs3)=NN2S(C)(=O)=O)cc1 (stereo not given),22,1,0,-7,-15,-13,2,i,
Cc1ccc(O)c(C(=O)/C=C/c2ccc3c(c2)OCCO3)c1,·,-5,-5,-3,-7,26,4,i,
Cc1oc(-c2ccc(Cl)cc2)cc1C(=O)/C(C#N)=C/Nc1cccc(OC(F)(F)F)c1,·,-15,4,9,-18,19,5,i,
CC(C)Cn1c(N)c(C(=O)COC(=O)c2cc(C(F)(F)F)nc3ccccc23)c(=O)n(C)c1=O,·,·,·,7,1,-6,18,·,
CC(=O)Nc1ccc(NC(=O)CSc2nc(N)c(NC(=O)c3ccccc3F)c(=O)[nH]2)cc1,-15,0,3,63,4,1,8,i,eIF4H inh retest=36;PABP FP inh retest=22
CCS(=O)(=O)N1CCN(C2Cc3ccccc3C2)CC1,-11,3,4,-9,-18,-7,2,i,
COc1ccc(C2/C=C\CN(C(=O)CC(C)(C)C)CC(=O)N2Cc2ccc(F)cc2)cc1 (stereo not given),-21,-3,-6,3,13,-8,-10,i,
CC(C)C(=O)N1CCC1(C)C(=O)Nc1nc2ccccc2[nH]1 (stereo not given),-11,0,3,·,-31,·,·,·,
COc1ccc(Cl)cc1NC(=O)c1cc(-c2ccccc2O)n[nH]1,·,6,0,-7,-2,18,8,i,
CCN(C(=O)COC(=O)/C=C/c1ccc(S(=O)(=O)N2CCc3ccccc32)cc1)C1CCS(=O)(=O)C1 (stereo not given),-12,1,-2,-6,-2,8,?,i,
CCCCCCCCc1nc(SCC(C)=O)n[nH]1,·,-2,-3,-2,-3,-7,-2,i,
CCCCCNCc1cccc(Br)c1,16,-3,-2,0,·,-5,11,i,
Cc1nn(Cc2ccccc2)c(Cl)c1/C=C/C(=O)OCC(=O)N(C)C1CCS(=O)(=O)C1 (stereo not given),·,-2,0,4,2,-2,9,i,
CCc1ccc(NC(=O)C2CC(=O)Nc3ncnn32)cc1 (stereo not given),·,1,-6,1,-4,-12,8,i,
COc1ccc(NC(=S)N(CCc2c(C)[nH]c3ccc(C)cc23)Cc2cccs2)cc1,-22,0,-5,6,8,19,61,i,eIF4H inh retest=-8;PABP FP inh retest=9
C=CCc1c(C)nc(SC)nc1Nc1ccc(C)cc1,-14,-3,-7,-10,·,-12,-3,i,
O=C(Nc1ccc(S(=O)(=O)Nc2ncccn2)cc1)c1ccc(Br)o1,-7,2,3,-6,21,-13,9,i,
Nc1nc(-c2ccc3ccccc3c2)cs1,·,3,-3,2,-46,·,18,i,
O=C(COc1c(Br)cc(Br)c2cccnc12)N1CCCCC1,·,1,1,-2,5,-1,2,i,

# An excerpt from above in order of length of the SMILES, highest first:
SMILES,UUG fidelity,MT1-MMP act inh,MT1-MMP act inh RFP,eIF4H inh,Env fusion inh,CSC inhib,PABP FP inh,Rce1 inh,others
CCN(C(=O)COC(=O)/C=C/c1ccc(S(=O)(=O)N2CCc3ccccc32)cc1)C1CCS(=O)(=O)C1 (stereo not given),-12,1,-2,-6,-2,8,?,i,
COc1ccc(C2CC(c3cccs3)=NN2S(C)(=O)=O)cc1 (stereo not given),22,1,0,-7,-15,-13,2,i,
O=C(COc1c(Br)cc(Br)c2cccnc12)N1CCCCC1,·,1,1,-2,5,-1,2,i,

# The listing picks up; the two compounds before the break are reprinted first.
SMILES,UUG fidelity,MT1-MMP act inh,MT1-MMP act inh RFP,eIF4H inh,Env fusion inh,CSC inhib,PABP FP inh,Rce1 inh,others
Nc1nc(-c2ccc3ccccc3c2)cs1,·,3,-3,2,-46,·,18,i,
O=C(COc1c(Br)cc(Br)c2cccnc12)N1CCCCC1,·,1,1,-2,5,-1,2,i,
Cc1onc(-c2ccccc2Cl)c1C(=O)Nc1ccc(S(=O)(=O)Nc2nccs2)cc1,·,-2,1,-7,10,-14,7,i,
COC(=O)c1cc(Br)c(=O)n(-c2ccccn2)c1,1,-7,0,12,·,-5,2,i,
CCNC(=O)CSc1nnc(C2CC2)n1-c1ccccc1,-5,-2,4,3,·,-10,0,i,
CCOC(=O)c1sc(-c2ccc(Cl)cc2Cl)nc1O,·,2,2,-1,-10,-3,-10,i,
C=CCNC(=O)C1CCCN(S(C)(=O)=O)C1 (stereo not given),-5,-1,-3,-10,·,-4,3,i,
CCOc1ccccc1C(=O)N(CCC(=O)OC)c1ccccn1,-5,-4,-1,-8,·,·,0,i,
Cc1ccc(Cl)cc1NS(=O)(=O)N1CCOCC1,-1,-2,1,-6,-3,14,1,i,
COCCNC(=O)CN(Cc1ccc(Cl)cc1)S(C)(=O)=O,-10,-316,-86,-7,12,-1,-4,i,
COc1ccc2cc(-c3[nH]ncc3CN3CCCCO3)ccc2c1,-15,3,3,-1,-30,1,-4,i,
CN(C)C(=O)C(=O)c1c(-c2ccccc2)cc2ccccn12,-17,0,-3,-7,·,·,0,i,
CS(=O)(=O)N(CC(=O)N/N=C/c1cc([N+](=O)[O-])ccc1Cl)c1ccccc1,·,2,2,4,·,-8,-2,i,
Cn1nnnc1SCC1=C(C(=O)O)N2C(=O)C(NC(=O)Cn3nc(C(F)F)cc3C3CC3)C2SC1 (stereo not given),·,-2,9,2,-7,-4,-3,i,
CCNC(=O)C1(C)CCCN(Cc2cc3ccccc3o2)C1 (stereo not given),-10,0,1,·,16,·,·,·,
CC(C)N1CCN(C(=O)c2ccc(OC3CCN(CCc4ccccc4)CC3)cc2)CC1,-6,9,8,0,·,-1,8,i,
CCc1ccc(NS(=O)(=O)c2ccc3[nH]cc(C(=O)N(C)Cc4ccco4)c(=O)c3c2)cc1,-8,-5,-1,31,·,-13,14,i,
Brc1cnc2ccccc2c1N1CCCCC1,·,-2,-4,·,7,-17,·,i,
O=C(NCCS(=O)(=O)c1ccc(Br)cc1)c1ccc(Cl)cc1,-5,0,0,-8,3,-6,3,i,
Cc1ccc(NC2CCCN(C(=O)c3cc(C(C)C)[nH]n3)C2)cc1C (stereo not given),-16,3,-2,2,·,-13,1,i,
O=[N+]([O-])c1ccc(NCc2ccc(Cl)cc2)nc1,5,4,1,-10,-22,6,13,i,
CCc1nc2c(OCCOC)cccn2c1N(C)C(=O)c1ccc(C)cc1,-4,-2,2,·,-43,·,·,·,

# By substructure: the compounds so far with a thiophene ring, fused or not
SMILES,UUG fidelity,MT1-MMP act inh,MT1-MMP act inh RFP,eIF4H inh,Env fusion inh,CSC inhib,PABP FP inh,Rce1 inh,others
COc1ccc(C2CC(c3cccs3)=NN2S(C)(=O)=O)cc1 (stereo not given),22,1,0,-7,-15,-13,2,i,
COc1ccc(NC(=S)N(CCc2c(C)[nH]c3ccc(C)cc23)Cc2cccs2)cc1,-22,0,-5,6,8,19,61,i,eIF4H inh retest=-8;PABP FP inh retest=9

# Carrying on:
SMILES,UUG fidelity,MT1-MMP act inh,MT1-MMP act inh RFP,eIF4H inh,Env fusion inh,CSC inhib,PABP FP inh,Rce1 inh,others
CC1(C)CC(=O)C=C(c2n[nH]nc2C2CC2)C1,12,3,3,·,-7,·,·,·,
CC(C)c1nc2sc3c(=O)[nH]c(=S)[nH]c3c2c2c1CCCC2,-22,2,-4,-11,-10,-15,-10,i,
CCOc1ccccc1C(=O)NCC(=O)OCC(=O)c1ccc2c(c1)OCCO2,-19,7,5,0,·,1,5,i,
COc1ccc(CC(NC(C)=O)C(=O)NC2CCN(C(=O)NCc3ccccc3)CC2)cc1OC (stereo not given),-7,0,4,4,-5,·,5,i,
Cc1cc(NCc2ccccn2)n2nc(C)c(-c3ccc(Cl)cc3)c2n1,-36,1,-16,9,31,77*,-2,i,
COc1ccc(C(=O)COC(=O)c2ccc(NC(C)=O)cc2)cc1[N+](=O)[O-],-1,4,4,-8,·,7,-4,i,
Cc1ccc(S(=O)(=O)Nc2cccc(C(=O)NCC(c3ccco3)N3CCCCC3)c2)cc1F (stereo not given),5,0,-2,·,·,-8,·,i,
Cn1nc([N+](=O)[O-])c(C(C#N)c2nc3ccccc3n2C)c(Cl)c1=O (stereo not given),·,-1,-2,?,-18,13,0,i,
CSc1nnc(-c2sccc2-n2cccc2)o1,·,4,1,-1,-2,6,10,i,
Cc1ccc(S(=O)(=O)NC(=O)C2(C)CCN2C(=O)Cc2cc(F)ccc2F)nc1 (stereo not given),-14,1,6,·,16,·,·,·,
CC(C)(C)NC(=O)CSCc1ccc(Br)cc1,-23,-7,-5,-5,2,·,2,i,
Cc1nn(CC#N)c(=O)n1-c1cccc(F)c1,-6,-3,-2,-9,·,-10,-1,i,
COCCNC(=O)CN1CCCCCC1,-3,4,7,11,3,0,7,i,
Cc1ccc(/C(N)=N/OC(=O)CCc2ccccc2)cc1,-13,7,-3,-8,·,-15,5,i,
COc1cc(/C=C(\C#N)c2ccccn2)ccc1OCc1ccccc1Cl,-19,-7,-6,-12,5,37,-1,·,
CCN(CC)CCCNC(=O)c1cn(CC(C)C)c(=O)c2c1c1ccccc1n2C,-8,-5,-1,3,-12,4,-11,i,
Cc1nonc1NCn1nnc2ccccc21,-7,1,3,-6,·,0,-9,i,
CC(=O)OCC(=O)C1(O)CCC2C3CCC4C(OC(C)=O)C(=O)CCC4(C)C3C(=O)CC21C (stereo not given),-10,3,4,·,12,·,·,·,
O=c1[nH]ncc(N/N=C\c2ccc(O)cc2O)c1Cl,-20,9,6,3,-27,·,-2,i,
COc1ccc(-c2c(C(F)(F)F)oc3cc(OCC(=O)Nc4ccccc4C(F)(F)F)ccc3c2=O)cc1OC,-5,-9,-2,1,25,27,6,i,
Cc1cc(C(=O)OCC(=O)NCc2ccco2)c(C)o1,·,-4,-2,19,-2,-3,11,i,
COc1ccc(N2CCN(c3nc(Cl)nc(N4CCOCC4)n3)CC2)cc1,·,-3,-6,-9,·,15,2,i,
COc1cc(C(=O)N(Cc2ccccn2)CC2CCCO2)cc(OC)c1OC (stereo not given),5,0,2,-4,·,·,36,i,
Cc1cccc(C)c1NC(=S)NCCc1ccccn1,·,3,-1,-7,3,-6,-16,i,
CCOC(=O)C1CCCN(S(=O)(=O)c2cccc3cccnc23)C1 (stereo not given),0,11,8,6,-5,-9,6,i,
COc1cccc(C(=O)N/N=C/c2ccc(OC3CSC3)cc2)c1,4,6,4,14,·,64,1,i,
Cc1ccc(NC(=O)CN(C)C(=O)CSc2n[nH]c(N)n2)cc1,-11,7,9,-11,-13,-5,-5,i,
C=CCn1c(O)c(C=Nc2ccccc2)sc1=S,-9,-2,0,-5,-16,6,3,·,
